2A StopGo – FMDV 2A StopGo reporter, luciferase signal; human cells with a luciferase reporter of 2A StopGo recoding; control for the full effect not named in the record; Potency, µM (doses to about 57.9 µM), for the others: at the top dose signal change, negative = less light; hit rate 1.2% among 410,000; active = well fitted falling curve with a large enough effect; inconclusive = small, poorly fitted or top-dose-only effect; inactive = no such curve, though single readings can be large or run the other way; tested in HEK293T cells; also: % is scaled to controls: 0 for no effect and ±100 for the full control effect; nearly all actives have a fitted effect of over 45% in size; luciferase light after 4 h
SARS PLpro yeast – SARS-CoV PLP inhibition in yeast. Potency, µM (titrated, usually from 32.9 µM), inactives show at the top dose activity, positive = growth rescue. hit rate 0.19% among 330,000. S. cerevisiae expressing SARS-CoV PLpro, growth rescue; control for the full effect not named in the record; active means well fitted rising curve with a large enough effect; inconclusive means small, poorly fitted or top-dose-only effect; inactive means no such curve, though single readings can be large or run the other way; also: 0% is about no effect; nearly all actives have a fitted effect of over 55% in size; growth read by luminescence after 48 h
RE007 growth inh – less growth of the S. pombe RE007 Vpr strain | hit rate 0.21% among 360,000 | S. pombe RE007 Vpr strain, BacTiter-Glo ATP luminescence, 24 h; control for the full effect not named in the record | Potency, µM (doses to about 92.2 µM), inactives show at the highest dose activity change, negative = less growth; active = well fitted falling curve with a large enough effect; inconclusive = small, poorly fitted or top-dose-only effect; inactive = no such curve, though single readings can be large or run the other way;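 also: % is scaled to controls: 0 for no effect and ±100 for the full control effect; nearly all actives have a fitted effect of over 50% in size; the assay follows cell death caused by Vpr and the record does not say whether a fall means rescue or toxicity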
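Fission yeast RE007 carrying one integrated HIV-1 vpr copy, seeded at OD 0.01 in PMG+AL medium with 23 nL pinned compound. Grown 24 h at 30 degrees; viability read by BacTiter-Glo luminescence after 5 min.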
Cruzain Triton – cruzain (T. cruzi) inhibition with detergent | P25779 | purified cruzain, Z-FR-AMC fluorescence, 0.01% Triton | Potency, µM, inactives show max response, negative = inhibition, usual class: inhibitors | hit rate 0.43% among 200,000;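 also: plate controls were neutral wells for no effect and buffer without enzyme for full effect; nearly all actives have a fitted effect of over 40% in size; top concentration of the series not given in the record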
Target sequence (P25779 123-467 limits assumed): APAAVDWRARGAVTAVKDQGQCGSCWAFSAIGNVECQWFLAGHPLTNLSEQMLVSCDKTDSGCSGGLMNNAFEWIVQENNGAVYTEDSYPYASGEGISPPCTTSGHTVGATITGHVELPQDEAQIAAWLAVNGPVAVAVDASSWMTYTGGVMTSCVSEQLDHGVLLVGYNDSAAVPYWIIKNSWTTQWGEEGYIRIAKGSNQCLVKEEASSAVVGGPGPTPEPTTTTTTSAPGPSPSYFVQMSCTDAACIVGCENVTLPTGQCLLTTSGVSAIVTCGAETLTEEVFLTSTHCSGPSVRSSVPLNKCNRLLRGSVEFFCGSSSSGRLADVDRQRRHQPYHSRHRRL
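Read-out: AMC fluorescence (360 nm excitation, 450 nm emission), four reads over 2 min, first-to-third difference used. Conditions: cruzain 1.5 nM, Z-FR-AMC 2 uM, pH 5.5 acetate, 5 mM DTT, 0.01% Triton X-100.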
Marburg entry inh – Marburg virus entry inhibition; Marburg virus pseudotyped entry inhibition, cell reporter; control for the full effect not named in the record; about a third of the inactives were read at about 46 µM; Potency, µM (top dose mostly 37.8 µM), for inactives: at the highest dose activity change, negative = inhibition, actives largely listed as inhibitors; hit rate 1.8% among 300,000; AID 540276; active = well fitted inhibition curve with a large enough effect; inconclusive = small, poorly fitted or top-dose-only effect, or effect the other way; inactive = flat fitted curve, though single readings scatter; tested in HEK293 cells; about a fifth of its hits are not listed in these tables; also: % is scaled to controls: 0 for no effect and ±100 for the full control effect; luciferase read-out
Lassa entry inh – blocks Lassa virus binding to or entry into cells; Lassa virus pseudotype entry inhibition, cell reporter; control for the full effect not named in the record; Potency, µM (doses to about 37.9 µM), without a hit: at the highest dose activity change, negative = inhibition, most hits filed as inhibitors; hit rate 1.2% among 300,000; AID 540256; active means well fitted inhibition curve with a large enough effect; inconclusive means small, poorly fitted or top-dose-only effect, or effect the other way; inactive means flat fitted curve, though single readings scatter; tested in HEK293 cells; also: % is scaled to controls: 0 for no effect and ±100 for the full control effect; nearly all actives have a fitted effect of over 50% in size; luciferase read-out
Cruzain inh noDet – blocks cruzain activity in detergent-free assay | P25779 | purified cruzain, Z-FR-AMC fluorescence, no detergent | Potency, µM, without a hit: max response, negative = inhibition, actives largely listed as inhibitors | hit rate 2.3% among 200,000;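 also: plate controls were enzyme without inhibitor for no effect and buffer without enzyme for full effect; nearly all actives have a fitted effect of over 40% in size; top concentration of the series not given in the record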
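Purified cruzain at 1.5 nM, pre-incubated 15 min with compound at room temperature in 100 mM sodium acetate pH 5.5, 5 mM DTT, 0.00005% Triton X-100. Reaction started with 2 uM Z-FR-AMC; AMC fluorescence increase over 60 s gives rate.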
NS1 function inh – inhibitors of influenza NS1 protein function; S. cerevisiae slowed by influenza A NS1, growth recovery by OD600; Potency, µM (top dose mostly 46.1 µM), for the others: at the highest dose activity, positive = more growth; hit rate 0.4% among 270,000; active means well fitted rising curve with a large enough effect; inconclusive means small, poorly fitted or top-dose-only effect; inactive means no such curve, though single readings can be large or run the other way; also: nearly all actives have a fitted effect of over 50% in size
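S. cerevisiae expressing influenza A NS1, grown in glucose, washed, then diluted 1:100 into pH 6.0 -URA galactose medium with 23 nl compound. Growth recovery read as OD600; NS1-free strain serves as control.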
Starred values were filed as active, the others as inactive; ? = inconclusive; · = not tested or not shown; & = joins results of further samples; [ ] = dose if it differs, or a comment. Unless noted, calls follow the shape of the dose curve; as a rule, active = well fitted curve in the direction sought with a large enough effect; inconclusive = small, poorly fitted or top-dose-only effect, or another doubt; inactive = no such curve, though single readings can be large; an effect the other way counts as inactive or inconclusive. Potency is read from the fitted curve at half-maximal effect.

SMILES | 2A StopGo | SARS PLpro yeast | RE007 growth inh | Cruzain Triton | Marburg entry inh | Lassa entry inh | Cruzain inh noDet | NS1 function inh
CCC(C)Cn1c(COc2ccc(OC)cc2)nc2ccccc21 (centres undefined) | 0% | · | · | -11% | -29%[46.1 µM] | -3%[46.1 µM] | 21% | ·
Cc1cccc(-n2c(SCC(=O)NCc3ccco3)nnc2-c2ccco2)c1 | 4% | 8% | 14% | 0.6% | -2%&6% | -22% | 13% | 1%
O=C(CN1CCc2ccccc21)NC(=O)NCc1ccco1 | -24% | -4% | 1% | 4.2% | -32% | 4% | 0% | -3%
O=C(Nc1ccc(S(=O)(=O)Nc2ncccn2)cc1)C1CC(=O)N(c2ccc(Cl)cc2)C1 (centres undefined) | -1% | -1% | ? | · | -7%[46.1 µM] | · | · | -3%
C=CCOC(=O)c1cn(CC)c2nc(C)ccc2c1=O | 0% | -1% | -8% | · | ? | 20% | · | ·
Cn1c(=O)[nH]c(=O)c2c1nc(NN)n2CCOc1ccccc1 | -4% | 0% | -9% | · | 6% | 4% | · | 2%
COC(=O)c1ccc(NS(=O)(=O)N(C)C)cc1 | 16% | -6% | ? | 5.7% | -2% | 5% | -3% | 10%
CC(=O)c1ccc(N(C(=O)Cn2nnc(-c3ccccc3)n2)C(C(=O)NC2CCCCC2)c2ccccn2)cc1 (centres undefined) | -7% | -11% | 2% | -3.6% | 9% | 0% | ? | 2%
COc1cc(/C=C(\C#N)C(=O)Nc2cccc3ncccc23)cc(OC)c1OC | ? | 17% | 3% | -0.7% | -28% | 0% | 9% | 3%
Cn1cnnc1SCC(C)(C)NS(=O)(=O)c1ccc(Cl)cc1 | 8% | 2% | -12% | · | -2%[46.1 µM] | 3% | · | ?
CCCCOC(=O)c1c(C)oc2c1cc(NS(=O)(=O)c1cc(OC)ccc1OC)c1ccccc12 | 8% | · | · | -1.3% | ? | ? | 13µM* | ·
Cc1cccc(NC(=O)c2cc(NC(=O)C3CCCCC3C(=O)O)ccc2N2CCOCC2)c1 (centres undefined) | 14% | -3% | -14% | · | 2% | 12% | · | 4%
CCC(C(=O)NC1CCCC1)N(C(=O)Cn1nnc(-c2ccc(C)o2)n1)c1cnc2ccccc2c1 (centres undefined) | -17% | 0% | -2% | 1.2% | ? | 4% | ? | -10%
Cc1ccc(NCc2nc3ccccc3n2C)cc1 | -13% | -3% | -4% | 8.1% | ? | ? | 2% | ?
COc1cc(/C=C/C(=O)N2CCCc3ccccc32)cc(OC)c1OC | -30% | 4% | 11% | -20% | ? | ? | -1% | -2%
CCCOC(=O)C1=C(C)NC2=C(C(=O)CCC2)C1c1cc(OC)ccc1OC (centres undefined) | 11% | -3% | 14% | 0.7% | 10% | -1% | 5% | -5%
COc1ccccc1-c1nnc(N(C)C(=O)C2CCCO2)s1 (centres undefined) | 31%[activator] | -3% | -5% | -5.2% | 14%[46.1 µM] | 3% | 2% | -7%
O=C(CCNC(=O)c1ccc([N+](=O)[O-])cc1)NC1CCCCC1 | -12% | 3% | 2% | · | -10%[46.1 µM] | 3% | · | ·
CCOc1cc(C(=O)Nc2ccncc2)cc(OCC)c1OCC | -20% | 0% | 10% | · | -8%[46.1 µM] | 0% | · | 3%
CCC(C(=O)NCc1ccc2c(c1)CCN2C(=O)c1ccc(F)cc1)c1ccccc1 (centres undefined) | 10% | · | · | -0.6% | · | ? | 11% | ·
O=S1(=O)CCN(Cc2ccc(Cl)cc2)CC1 | -14% | 3% | -20% | 3.2% | ? | 7% | -10% | -17%
COc1ccc(C(=O)NC(=S)Nc2ccccc2F)cc1 | 28% | 9% | 7% | -5.6% | ? | 19% | 2% | 22%
COc1cccc2sc(NC(=O)c3ccc(S(=O)(=O)N4CCC(C)CC4)cc3)nc12 | ? | · | · | -1.7% | · | -4%[46.1 µM] | ? | ·
CCOc1cc(NC(=S)NCC2CCCO2)c(OCC)cc1NC(=O)c1ccc(OC)cc1 (centres undefined) | 9% | 12% | -3% | -4.6% | 5% | ? | 15% | ?
CCC1(C)Cc2c(sc3nnn(CC(=O)Nc4ccccc4)c(=O)c23)CO1 (centres undefined) | -21% | -3% | 12% | -1.3% | -2% | -15% | -9% | 4%
Cc1ccc(NC(=O)c2cnc(SCC(=O)N3CCCc4ccccc43)n(C)c2=O)cc1C | -17% | · | · | 0.7% | · | 29%[46.1 µM] | 14% | ·
Clc1ccc2nc(SCc3nnc(-c4ccccc4)o3)[nH]c2c1 | -17% | 2% | -29% | -25% | ? | 8% | ? | -30%
COc1ccccc1NC(=O)NC1(C(=O)N2CCCCC2)CCCCC1 | -3% | -3% | 0% | · | 3%[46.1 µM] | 28%[46.1 µM] | · | -11%
CCc1ccc(Nc2ncc3c(n2)CC(c2ccc(OC)cc2)CC3=O)cc1 (centres undefined) | -2% | 0% | 8% | 4.1% | 18µM* | 0.52µM* | -9% | 3%
O=C(COc1ccc(Cl)cc1Cl)Nc1ccc2nc3n(c(=O)c2c1)CCCC3 | -42% | 2% | 1% | -4.0% | ? | ? | ? | -32%
CCOc1ccccc1CN1CCC(n2nccc2NC(=O)CCCc2ccccc2)CC1 | -25% | 10% | -15% | · | · | · | · | 9%
COc1ccc(C(C)=O)cc1CS(=O)(=O)CC(=O)O | 2% | 0% | 7% | · | 14%[46.1 µM] | ? | · | ·
O=C(Nc1ccc(Cl)c(-c2nc3ccccc3o2)c1)c1ccc(-c2cccc([N+](=O)[O-])c2)o1 | -10% | · | · | -2.8% | 19%[46.1 µM] | 0%[46.1 µM] | -27% | ·
O=C(c1ccc([N+](=O)[O-])cc1)N1C=CC(C(F)(F)F)=NCC1 | -4% | 26% | 2% | · | 4%[46.1 µM] | 18% | · | ·
O=C(c1ccccc1[N+](=O)[O-])N1CCN(Cc2ccc3c(c2)OCO3)CC1 | -34% | 1% | 1% | 0.5% | -10% | 4% | -8% | 0%
Cc1ccc(-c2cc3ccccc3nc2N2CCOCC2)cc1 | -19% | -4% | 2% | · | 19%[46.1 µM] | 19%[46.1 µM] | · | ·
CC12CN3CC(C)(CN(C1)C3c1cc3ccccc3[nH]1)C2=O (centres undefined) | ? | 0% | 18% | 2.8% | 4% | 13% | 3% | -14%
COc1ccc(NC(=O)NC2CCCc3ccccc32)c(OC)c1 (centres undefined) | -23% | 1% | 4% | · | -17%[46.1 µM] | -7%[46.1 µM] | · | -1%
O=C(COC(=O)C1CCC1)NCc1ccccc1Cl | 8% | -4% | 10% | 6.0% | 17% | -1% | 1% | 3%
CCN(Cc1ccccc1)C(=O)CCS(=O)(=O)c1ccc2c(c1)CCN2C(C)=O | ? | 1% | 0% | -1.1% | 4%&4%[46.1 µM] | 15%[46.1 µM] | -6% | 7%
CC(C)(C)OC(=O)N1CCN(C(=O)[C@H](Cc2ccc(O)cc2)n2cc(CCO)nn2)CC1 | -14% | 0% | 11% | · | · | · | · | 0%
COc1ccc(CN2CC(C(=O)NCCN3CCN(c4ccccc4F)CC3)CC2=O)cc1 (centres undefined) | ? | 8% | 0% | 2.3% | 1%&1% | 0% | 1% | -4%
COc1ccc(OC)c(C2CC(c3c(-c4ccccc4)c4cc(Cl)ccc4[nH]c3=O)=NN2S(C)(=O)=O)c1 (centres undefined) | ? | 4% | -18% | -1.1% | ? | ? | ? | 20%
CC(Sc1nnc(-c2ccc(Cl)cc2)n1N)C(=O)NCC1CCCO1 (centres undefined) | -5% | -3% | 6% | · | 5% | 0% | · | ·
CCN(C(=O)CCS(=O)(=O)c1cc2c(cc1C)NC(=O)CO2)c1cccc(C)c1 | -7% | · | · | -6.2% | · | 12%[46.1 µM] | -2% | ·
CCCNC(=O)CN(C)CC(=O)Nc1ccccc1C#N | 5% | -3% | 1% | · | 10% | -5% | · | ·
Cc1cccc(C(=O)NCC(=O)OCC(=O)N2CC3(C)CC2CC(C)(C)C3)c1 (centres undefined) | ? | -4% | 0% | 14µM* | -4% | -13% | 13µM* | 20%
CC(C)(C)c1cc[n+](-c2[nH]c(=O)sc2/C=N/NC([S-])=Nc2ccccc2)cc1 | -15% | -6% | -12% | · | ? | -14%[46.1 µM] | · | 4%
CCN(CC)c1ccc(/C=N/NC(=O)c2c(Cl)cnn2C)c(O)c1 | 21% | ? | ? | -12% | 1.1µM* | 21µM* | -10% | -64%
C=CCc1cc2c(oc(=O)c3ccccc32)c(C)c1O | 5% | -2% | 0% | · | 27%[46.1 µM] | -20%[46.1 µM] | · | -3%

Next entries:
SMILES | 2A StopGo | SARS PLpro yeast | RE007 growth inh | Cruzain Triton | Marburg entry inh | Lassa entry inh | Cruzain inh noDet | NS1 function inh
Cc1ccsc1/C=N/NC(=O)c1c[nH]c2ccccc12 | 45%[activator] | -9% | 12% | -2.9% | 9% | 11% | -2% | -4%
CCCNC(=O)CN(C)S(=O)(=O)c1c(C)cc(C)cc1C | -14% | -3% | -10% | 0.5% | 0% | -4% | 8% | -7%
Cc1ccc(NC(=O)NCCN2CCCCC2)cc1 | 13% | -1% | ? | · | 7%[46.1 µM] | 21%[46.1 µM] | · | 1%
CSc1nc2ccsc2c(=O)n1-c1ccccc1 | -13% | 1% | 8% | · | -22%[46.1 µM] | -7%[46.1 µM] | · | -2%
OCCNCCOc1ccc(Cl)c(Cl)c1 | -12% | -3% | -10% | -3.4% | ? | ? | -16% | -10%
S=C(S)O[C@@H]1C[C@@H]2C[C@H]1[C@@H]1CCC[C@H]21 | 3% | · | · | -9.1% | 13% | · | 13% | ·
CCOC(=O)c1ccc(NC(=O)Cn2cc(C(=O)c3ccc(CC)cc3)c(=O)c3ccc(C)nc32)cc1 | -17% | · | · | 0.2% | · | -17%[46.1 µM] | 10% | ·
Cc1cc(Cl)ccc1OC(C)C(=O)Nc1ccc(C(=O)Nc2ccccc2C(=O)O)cc1 (centres undefined) | -14% | -10% | 0% | · | · | · | · | -8%
O=S(=O)(c1ccccc1)n1nc(-c2ccccc2)nc1NCc1ccc(Cl)cc1 | 1% | · | · | -5.0% | -2%[46.1 µM] | -4%[46.1 µM] | -14% | ·
CCOC(=O)c1nc(-c2ccc(OC)c(OC)c2)cnc1C#N | -9% | 2% | -5% | -3.8% | 2% | 9% | 15% | -3%
